A1 inh: inhibitors of the anti-apoptotic protein A1, read as caspase activation; MEF A1-2A-BIM cells, Caspase-Glo 3/7 luminescence, 3 h; percent of clofoctol response, vehicle zero; caspase activation, % (concentration not given with the values); actives 0.066% (n = 330,000); AID 2462;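 active means over half of replicate activation scores above 10%, or exactly half above 10 with the replicate mean above 10; inconclusive means replicate mean below 10 yet half the replicates above 10; inactive means over half of replicates below 10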;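 further: wells of about 30 µL received 50 nL stock; many hits fall short of the cut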
T cruzi inh: T. cruzi replication inhibition | T. cruzi beta-gal in NIH3T3, luminescence, 90 h | inhibition, % (no concentration beside the values) | actives 1.4% (n = 300,000);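 active means mean inhibition across valid replicates above about 55%, limit read from the data; inconclusive means mean below that limit but half or more replicates reach it; inactive means mean below it, under half of replicates reach it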;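 further: signal also drops with host cell toxicity which is not excluded here; 0% = plate median of DMSO wells and 100% = zero luminescence signal; higher percent means less beta-gal luminescence so fewer parasites; stock transfer was 50 nL into about 50 µL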
AF4-AF9 inh: blocks AF4 peptide binding to human AF9. P42568. AlphaScreen, biotin-AF4 peptide binding to FLAG-AF9. inhibition, % at 10 µM. actives 0.47% (n = 350,000). AID 651704;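 active means every replicate reaching a set inhibition limit, whatever the replicate mean, cut at about 25% in these data; inconclusive means mean inhibition reaches that limit but some replicates miss it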;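 further: 0% = plate neutral control median and 100% = total signal loss; the record names both 10 and 1 µM as test concentration; the first replicate is given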
Target sequence (P42568 whole entry, looked up): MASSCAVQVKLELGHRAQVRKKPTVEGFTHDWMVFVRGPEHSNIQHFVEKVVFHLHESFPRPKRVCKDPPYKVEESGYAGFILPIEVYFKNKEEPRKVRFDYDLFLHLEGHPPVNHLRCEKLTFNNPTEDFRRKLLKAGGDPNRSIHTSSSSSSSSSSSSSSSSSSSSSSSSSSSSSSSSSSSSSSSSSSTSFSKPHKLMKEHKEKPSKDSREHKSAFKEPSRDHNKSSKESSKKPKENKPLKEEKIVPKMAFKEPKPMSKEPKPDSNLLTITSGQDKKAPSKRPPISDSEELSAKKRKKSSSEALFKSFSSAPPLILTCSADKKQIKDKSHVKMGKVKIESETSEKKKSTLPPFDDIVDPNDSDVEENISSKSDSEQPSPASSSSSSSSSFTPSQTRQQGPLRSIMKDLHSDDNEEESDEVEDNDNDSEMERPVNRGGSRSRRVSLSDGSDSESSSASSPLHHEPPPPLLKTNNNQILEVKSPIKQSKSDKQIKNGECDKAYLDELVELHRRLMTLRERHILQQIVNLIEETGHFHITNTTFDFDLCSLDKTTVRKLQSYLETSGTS
Beta cell apopt: blocks beta cell apoptosis; protection from apoptosis, % (test concentration not listed); actives 0.8% (n = 300,000); AID 435005; INS-1E cytokine-induced death, ATP luminescence, 48 h; percent of positive-control rescue, neutral wells zero;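 active means all replicates at 75% or more, or half of them and the mean; inconclusive means half reach 75% but not the mean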;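 further: 0% = cytokine-treated negative control wells and 100% = positive control rescue; higher means more ATP so stronger rescue from cytokine killing; wells of about 40 µL received 100 nL stock; the first replicate is given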
Vif TR-FRET: inhibitors of Vif binding to APOBEC3G peptide, primary screen, biochemical, TR-FRET, GST-Vif 1-94, biotin-A3G peptide, dose response retest (AID 1117319); TR-FRET GST-Vif / biotin-A3G peptide binding; higher % means a stronger effect; test concentration not given here; strong numbers were not always called active; one-dose inhibition, %; IC50 in µM for titrated hits; actives 0.57% (n = 260,000);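 active means above the screen mean plus three standard deviations and confirmed in dose response; inconclusive means results disagree or hit not tested in dose response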;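 further: Vif residues 1-94 fused to GST binding biotinylated APOBEC3G peptide 110-148; 0% = full assay without inhibitor and 100% = GST in place of GST-Vif; retest series ran down from 100 µM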
RanGTP-Imp inh: inhibitors of RanGTP-importin-beta interaction, primary screen, biochemical, FRET, CFP-Ran, YFP-importin-beta, homogeneous. cell-free CFP-Ran/YFP-importin-beta FRET ratio. inhibition, % (concentration not given with the values). actives 1.1% (n = 300,000). AID 2216;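 active means most replicates above 15%; inconclusive means exactly half above 15%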;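 further: 0% = DMSO wells and 100% = Ran loaded with GDP instead of GTP; wells of about 40 µL received 100 nL stock; the first replicate is given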
Calb FLC: affects C. albicans growth with fluconazole. C. albicans CaCi-2 (fluconazole-resistant clinical isolate) + fluconazole, Alamar Blue growth, 48 h. growth inhibition, % (concentration not given with the values). actives 0.57% (n = 300,000). AID 1979;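 active means most replicates above 75%; inconclusive means exactly half above 75%; inactive means most below 75%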;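 further: all wells also contain fluconazole at 8 µg/ml as a sub-toxic cotreatment; 0% = median of DMSO wells and 100% = median of geldanamycin control wells; wells of about 8 µL received 7.5 nL stock; the first replicate is given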
Ecoli rRNA inh: inhibitors of bacterial rRNA selective over humanized ribosomes | E. coli WT GFP vs humanized-ribosome RFP mutants, fluorescence, 24 h; stronger effect = lower value; DMSO median 0, no signal -100 | GFP signal change (wild-type ribosome), % (test concentration not listed) | actives 1.6% (n = 350,000);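 active means significant combined selectivity score with lowered wild-type GFP, culture density cut under 30%, mutant RFP and density less affected; inactive means any of these conditions unmet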; further: one replicate is shown; some compounds called inactive have numbers as strong as hits
Ecoli rRNA inh OD600: recorded beside Ecoli rRNA inh, whose call it bears; OD600 change, %; measured here: OD600 growth;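 optical density of the mix in the first replicate; 0 = DMSO median and -100 = no signal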
Ecoli rRNA inh RFP: also measured in Ecoli rRNA inh; calls as there; RFP signal change, %; measured here: RFP humanized mutant strains;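 first replicate; 0 = DMSO median and -100 = no signal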
Starred values were filed as active, the others as inactive; ? = inconclusive; nt = no result given; & = joins results of further samples.

SMILES | A1 inh | T cruzi inh | AF4-AF9 inh | Beta cell apopt | Vif TR-FRET | RanGTP-Imp inh | Calb FLC | Ecoli rRNA inh | Ecoli rRNA inh OD600 | Ecoli rRNA inh RFP
CN(C)CCO/N=C(\c1ccc(Br)cc1)c1cccnc1 | -0.3 | 14.7 | 0.9 | nt | nt | 0.7 | 1.2 | 5.3 | -1.0 | -0.5
CCN(CC(=O)Nc1ccc(OC)cc1)C(=O)CSCc1ccc(C)cc1 | -0.7 | nt | 2.6 | -2.7 | 3.6% | nt | nt | -4.7 | -18.0 | 0.1
CCOc1ccc(OCC)c(NC(=O)CC2Oc3ccc(C)cc3NC2=O)c1 (stereo unspecified) | -0.6 | 4.4 | -1.2 | 3.7 | ? | -2.2 | 0.9 | 9.8 | 12.6 | 1.0
O=C(Cc1c[nH]c2ccccc12)N1CCN(S(=O)(=O)c2cccc(Cl)c2Cl)CC1 | -0.5 | nt | 5.6 | 4.8 | nt | nt | nt | -10.6 | -43.5 | 17.6
OC(CNC1CCCC1)COc1c(F)cc(Br)cc1F (stereo unspecified) | 0.9 | 35.1 | nt | -6.1 | -2.7% | -5.7 | -17.7 | nt | nt | nt
O=[N+]([O-])c1cc(S(=O)(=O)c2ccc(N3CCCCC3)c([N+](=O)[O-])c2)ccc1N1CCCCC1 | -0.9 | 24.6 | 1.1 | 23.0 | 5.5% | 9.2 | 1.6 | 9.9 | 10.4 | 3.5
c1coc(C2Nc3ccccc3-c3nc4ccccc4n32)c1 (stereo unspecified) | -0.7 | -4.0 | -7.7 | 2.3 | 2.5% | -0.8 | 2.4 | -1.6 | 2.9 | 3.0
CN(CC(=O)NCCCN1CCOCC1)S(=O)(=O)c1ccc(F)cc1 | 1.0 | -8.1 | -4.0 | 1.3 | nt | -6.3 | -1.6 | 8.3 | 3.5 | 0.8
CCCC(=O)N1CCN(c2ccc(NC(=O)C(C)(C)C)cc2)CC1 | 0.1 | -0.4 | nt | 0.2 | 23.3% | -1.6 | 1.6 | nt | nt | nt
CCOc1cc(/C=C2/N=C(c3ccc(C(C)(C)C)cc3)OC2=O)cc(Cl)c1OS(C)(=O)=O | 0.4 | -6.5 | nt | -1.2 | 8.6% | -1.4 | 5.5 | nt | nt | nt
Cc1ccc(S(=O)(=O)/N=C(\N)Nc2nc(C)c3cc(C)ccc3n2)cc1 | 0.2 | 21.6 | nt | 1.2 | -8.1% | -2.5 | 2.9 | nt | nt | nt
COc1ccc2oc(=O)c(-c3cn4ccc(C)cc4n3)cc2c1 | -1.6 | -24.8 | 2.5 | -8.8 | 2.1% | -4.0 | 24.4 | -2.2 | 0.0 | 4.3
O=C(Nc1ccc(S(=O)(=O)Nc2ncccn2)cc1)c1cncc(Br)c1 | 0.5 | 3.0 | nt | -6.4 | nt | -3.2 | -5.3 | nt | nt | nt
COc1ccc(C(=O)CSc2nc(C)cc(C)n2)cc1[N+](=O)[O-] | -1.5 | -4.7 | -3.9 | -1.1 | -2.9% | -2.8 | 1.9 | 6.9 | -3.3 | -3.2
Cc1cc(N2CCCCC2)nc2ccc(NC(=O)CCC(=O)NCCC(C)C)cc12 | -0.8 | -4.3 | nt | 0.2 | -3.9% | 0.6 | -17.9 | nt | nt | nt
CC1=C(C(=O)Nc2ccccc2C(F)(F)F)C(c2ccc(C)s2)NC(=S)N1 (stereo unspecified) | 0.5 | 3.2 | -1.3 | nt | -8.0% | -2.9 | 21.8 | -10.1 | -2.4 | -3.5
O=C(O)c1ccc2c(c1)C(=O)N(NC(=O)c1ccccc1)C2=O | 0.7 | -31.0 | nt | -3.2 | -0.9% | ? | -3.9 | nt | nt | nt
C=CCn1c(SC/C=C/c2ccccc2)nnc1-c1sc(N)nc1C | -1.4 | -7.0 | nt | 1.6 | -2.9% | -1.5 | 1.0 | nt | nt | nt
CC1CC(C)CN(C(=O)CN2C(=O)NC3(CCCCCC3)C2=O)C1 (stereo unspecified) | -0.1 | nt | -0.4 | -1.0 | -2.1% | nt | nt | 9.2 | 0.6 | -0.5
COC(=O)c1c(NC(=O)CC2SC(N)=NC2=O)sc2c1CCC(C(C)(C)C)C2 (stereo unspecified) | -0.3 | 43.3 | 4.9 | -0.3 | 22.7% | 5.6 | 22.0 | 6.9 | -0.4 | 4.1
CC(=O)Oc1cccc(C(=O)Nc2cccc(C(=O)Nc3ccccc3C(=O)O)c2)c1 | -0.1 | -16.5 | -5.9 | nt | nt | -0.1 | 1.9 | -0.2 | -7.8 | 2.3
CCC(C(=O)NCCCc1ccccc1)n1nc(C)c2c(C)n(-c3ccccc3)nc2c1=O (stereo unspecified) | -0.2 | 5.9 | -9.4 | 3.4 | nt | -0.1 | -0.1 | -8.1 | -8.8 | 2.4
Cc1ccc(OCc2cc(C(=O)N3CCCCCCC3)no2)cc1C | 0.0 | -2.1 | -2.3 | -5.0 | -3.3% | 2.3 | 0.3 | -14.8 | -45.0 | 0.5
CSCCC(NS(=O)(=O)c1ccc(C)cc1)C(=O)N1CCN(C(C)=O)CC1 (stereo unspecified) | 0.3 | 1.4 | -1.6 | 0.3 | -4.2% | 2.4 | 0.5 | 13.5 | 5.6 | -0.5
CCN(CC)C(=O)c1sc2nc(-c3ccncc3)[nH]c(=O)c2c1C | 0.5 | -11.4 | nt | -4.9 | 2.5% | -2.1 | 1.0 | nt | nt | nt
CC(NC(=O)C1CCC(C(=O)NC(C)c2ccccc2)CC1)c1ccccc1 (stereo unspecified) | -0.6 | -6.9 | 3.3 | 237.8* | nt | 0.0 | -2.0 | 7.3 | 4.4 | -1.6
CN1CCN(NC(=O)c2cn(-c3ccccc3)nc2-c2ccc(OC(F)F)cc2)CC1 | 0.3 | 45.9 | 1.2 | 5.6 | 1.7% | 5.1 | -2.0 | -13.3 | -10.7 | 0.4
CC1(C)CC=C(NNC(=O)c2cccnc2)C(=O)C1 | 0.0 | -3.6 | -0.3 | -2.9 | 4.1% | 3.9 | -7.4 | 28.4 | 17.1 | 17.1
COc1ccc(NC(=S)NC(=O)C2CCC2)cc1 | 0.0 | -16.4 | 0.6 | -1.1 | nt | 2.2 | -19.2 | nt | nt | nt
O=C(COc1ccccc1)N(CCc1ccccc1)c1nc(-c2ccc(F)cc2)cs1 | 0.1 | 16.1 | nt | 7.6 | -3.9% | ? | -3.7 | nt | nt | nt
COc1ccc(-c2cc([C@H]3[C@H]4C=CC[C@@H](C)[C@@H]4C(=O)N3Cc3ccccc3)ccc2F)cc1OC | -0.2 | 16.3 | 5.6 | 6.6 | nt | 0.1 | -7.2 | 9.1 | 4.8 | 4.2
Cc1ccc(-n2c(C)cc(/C=N/NC(=O)c3ccncc3)c2C)c(C)c1 | -1.2 | -10.4 | nt | -9.0 | 6.8% | 0.4 | 1.3 | nt | nt | nt
Cn1c(=O)n(Cc2ccccc2)c(=O)c2c1nc1n2CCCN1CCc1ccccc1 | 1.3 | 14.7 | nt | 13.9 | 8.1% | ? | 37.2 | nt | nt | nt
O=C(/C=C/c1cccc(Cl)c1)NNC(=O)c1ccncc1 | -0.3 | nt | -0.4 | -2.6 | 3.8% | nt | nt | 3.4 | 15.4 | -1.2
COc1ccc(N2CCN(c3c(S(=O)(=O)c4ccccc4)cnc4ccc(OC)cc34)CC2)cc1 | 0.9 | 8.8 | nt | -2.0 | 13.6% | 3.4 | -7.5 | nt | nt | nt
O=C(CSc1ncnc2sccc12)Nc1ccccc1 | 0.1 | -5.4 | -0.4 | -12.6 | -6.5% | -4.8 | -4.5 | 0.0 | -3.2 | 0.8
CCOC(=O)c1c(NC(=O)C2C3CCC(O3)C2C(=O)O)sc(C)c1-c1ccc(C)cc1 (stereo unspecified) | -0.4 | 3.3 | nt | nt | -4.9% | -2.5 | 13.2 | nt | nt | nt
COc1cccc(-c2cc(C(=O)Nc3c(C)nn(Cc4ccccc4C)c3C)no2)c1 | -0.4 | -0.6 | nt | 17.9 | 4.7%&-10.8% | 6.9 | 24.2 | nt | nt | nt
COc1ccc(NC(=O)CSc2ccc3c(c2)OCCO3)cc1OC | 0.3 | 5.9 | nt | 3.4 | 3.1% | 2.1 | -4.6 | nt | nt | nt
COc1ccc(OC)c(C2/C(=C(\O)c3ccc4c(c3)OCCO4)C(=O)C(=O)N2CC2CCCO2)c1 (stereo unspecified) | -0.1 | -2.7 | 0.1 | 1.3 | nt | -0.4 | -1.6 | -7.4 | -20.7 | -1.1
COc1cc(-c2nc(CN3CCCN(C(=O)c4ccco4)CC3)c(C)o2)ccc1F | -0.1 | -14.7 | 2.3 | -0.8 | 8.0% | 0.7 | -1.3 | -8.6 | -7.4 | 0.6
C=C1CCN([C@@H](Cc2ccccc2)C(=O)Nc2ccc(OC)cc2)S(=O)(=O)c2ccccc21 | 0.6 | 6.1 | nt | 0.4 | nt | 1.4 | -4.3 | -7.9 | -33.1 | 0.2
COc1cc(S(=O)(=O)N2CCOCC2)ccc1NC(=O)COC(=O)COc1ccccc1 | 1.1 | 0.7 | -0.4 | -1.7 | 0.4% | 0.0 | -5.7 | 7.8 | 4.5 | -0.1
Cc1nc(SCC(=O)Nc2cc(C(N)=O)cc(C(N)=O)c2)c2c(C)c(C)sc2n1 | -0.2 | -10.6 | 1.3 | -1.5 | -17.9% | -2.8 | -3.6 | 12.9 | 4.1 | -2.5
CS(=O)(=O)N(CC(=O)Nc1ccc(F)cc1F)C1CCCCC1 | -0.5 | -0.7 | -1.6 | nt | 9.8% | ? | -0.3 | 6.8 | -1.0 | 5.4
CCC(C)OC(=O)C1=C(C)NC2=C(C(=O)C(C(=O)OC)C(C)C2)C1c1ccc(N(C)C)cc1 (stereo unspecified) | 0.1 | 2.5 | nt | -2.9 | 8.4% | -2.9 | 9.6 | nt | nt | nt
COC(=O)c1c(-c2ccccc2)csc1NC(=O)CSc1ncnc2sc(C)c(C)c12 | -1.3 | -9.1 | nt | 11.2 | -2.3% | 4.1 | -27.2 | nt | nt | nt
CC1=C(C(=O)OCC2CCCO2)C(c2ccc(Cl)cc2)NC(=O)N1 (stereo unspecified) | 0.4 | -8.7 | -3.1 | -0.1 | -13.5% | 4.9 | 5.3 | -5.8 | 1.6 | -1.3
Cc1ccc(N2CCN(C(=O)c3ccccc3NC(=O)C3CC=CCC3C(=O)O)CC2)cc1 (stereo unspecified) | 0.5 | -2.5 | nt | -3.2 | 1.1% | 1.6 | -24.7 | nt | nt | nt
COc1cccc(C2SCC(=O)N2c2ccc(C)cc2)c1OC (stereo unspecified) | 1.1 | 4.8 | 0.4 | -1.3 | 10.1% | -2.4 | 10.0 | -10.1 | -12.8 | -6.6
CC1CCC(NC(=O)N(CCCl)N=O)CC1 (stereo unspecified) | 0.8 | -1.8 | -2.6 | 0.2 | nt | 4.1 | nt | -3.7 | -1.2 | 0.8
O=C(NCCC1=CCCCC1)C1CCN(S(=O)(=O)N2CCOCC2)CC1 | 0.8 | -12.2 | nt | -4.5 | 4.7% | -1.1 | 1.5 | nt | nt | nt
COc1ccc(-c2cc(-c3ccc(OC)c(OC)c3)n[nH]2)c(O)c1 | 0.6 | -2.6 | nt | 1.7 | -4.9% | -1.9 | ? | nt | nt | nt

Bioassay records (PubChem BioAssay)

Only part of the results is shown; count on the stated rates, not on these rows.
